MgrA DNA FP: S. aureus MgrA-DNA binding modulation | 84,000 compounds, 0.13% hits | inhibition, %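 (about 10 µg/mL by stock and volumes)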 | fluorescence polarization | AID 602314;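 active means above 50% in either of two replicates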;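 further: 0% = protein plus DNA without compound and 100% = DNA alone without protein; higher means less MgrA bound to DNA so lower polarization; one replicate is shown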
S aureus helic: blocks Staphylococcus aureus DNA helicase; purified S. aureus helicase, fluorescence unwinding assay; about half of the hits fall short of the stated cut; 120,000 compounds, 0.05% hits; inhibition, %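 (tested at about 80 µM)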;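 active means both duplicates at 50% or more, or one of them with a favoured structure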;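 further: 0% = mean of negative control wells and 100% = mean of positive control wells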
Active calls of the source: *; . = no result given; & = joins results of further samples.

SMILES | MgrA DNA FP | S aureus helic
COc1ccccc1NC(=O)C(C)n1nc(C(=O)O)c2ccccc2c1=O (stereo not given) | . | 8
CCc1ccc2c(CCl)cc(=O)oc2c1 | 1.3 | -3
CC(C)(C)NS(=O)(=O)c1ccc(N2C(=O)CCC2=O)cc1 | -1.2 | 8
Cc1cc(C)nc(NS(=O)(=O)c2ccc(NC(=S)NC(=O)/C=C/c3ccco3)cc2)n1 | 11 | 3
C=CCn1c(C)cc(C(=O)CSc2nnc3ccccn23)c1C | -1.7 | -17
Cc1onc(-c2ccccc2)c1CNC(=O)CCC(=O)O | -3.9 | .
FC(F)(F)c1ccnc(-c2ccccc2)n1 | 1.5 | .
CNC(=O)c1cccc(S(=O)(=O)N2CC(C)CC(C)C2)c1 (stereo not given) | -0.4 | -2
Cn1c(CNC(=O)C(C)(C)C)nc2ccccc21 | . | -10
Cc1cc(OCC(=O)c2cccc(C(F)(F)F)c2)n2cnnc2n1 | -3.4 | .

Overlap with the part before: 2 entries, then new ones.
SMILES | MgrA DNA FP | S aureus helic
Cn1c(CNC(=O)C(C)(C)C)nc2ccccc21 | . | -10
Cc1cc(OCC(=O)c2cccc(C(F)(F)F)c2)n2cnnc2n1 | -3.4 | .
CCOc1nc(NCCN2CCOCC2)nc(NC(C)C)n1 | 0.2 | 5
Cc1cc(=O)n2nc(NC(C)C(=O)NCCCc3ccccc3)sc2n1 (stereo not given) | -0.3 | 3
CSc1ncc(-c2ccc(Cl)cc2)[nH]1 | -1.0 | .
O=S(=O)(c1cc(Cl)ccc1Cl)N1CCCCC1 | -0.3 | .
COC(=O)c1ccc2nc(NC(=O)c3ccco3)sc2c1 | . | 1
CC(C)OC(=O)Cn1nc(C(F)(F)F)c2c1CCCC2 | . | -14
N#CCC(=O)NNC(=S)NCC1CCCO1 (stereo not given) | 4.1 | .
CCC(=O)Nc1ccc(-c2cc3ccccc3oc2=O)cc1 | -1.5 | 5
O=c1[nH]c(=O)n(-c2ccc(Cl)cc2)c(O)c1/C=N/n1cnnc1 | -6.8 | -9
CN(C)CCOC(=O)c1c[nH]c2ccccc12 | . | 5
COc1ccc(CNS(=O)(=O)c2ccc3[nH]cc(C(=O)O)c(=O)c3c2)c(OC)c1 | . | 11
CS(=O)(=O)N1CCc2cc(C(=O)CSc3nc4ccccc4o3)ccc21 | . | 9
CC(C)CN=CC1=C(O)CC(C)(C)CC1=O | 1.6 | 6
COc1ccc(S(=O)(=O)N2CN(Cc3ccccc3)c3nc4ccccc4nc32)cc1 | . | 2
O=C(CSC1=N/C(=C/c2ccco2)C(=O)N1c1ccccc1)Nc1nc2ccccc2s1 | 2.6 | 22
CN(CC(=O)N1CCCC1)S(=O)(=O)c1ccc(F)cc1 | 0.8 | 11
Cc1ccc(N(CC(=O)c2ccccc2)CC(=O)c2ccc(Cl)cc2)cc1 | 4.0 | 14
CCOC(=O)c1cc2sccc2n1CC(=O)c1ccc2c(c1)OCCO2 | 2.9 | -14
COc1ccc(CCn2c(C)cc(O)cc2=O)cc1OC | 4.5 | 11
O=C(CSc1nccc(=O)[nH]1)Nc1ccccc1Br | -0.7 | 6
CC(C)OC(=O)c1cccc(C(=O)OC(C)C)n1 | 0.2 | 1
O=C(O)CCc1nnc2ccc(NCCCN3CCCC3=O)nn12 | . | 27
CCCN1CCC(NC(=O)Cc2ccc(C)cc2)CC1 | 1.5 | -18
Cc1cc(C)nc(N/N=C/C2=C(N3CCOCC3)C(=C\c3ccccc3)/CC2)n1 | . | 7
COCc1cc(C)nc(Cl)c1C#N | 0.6 | 2
CN(C)CCCNC1CS(=O)(=O)CC1O (stereo not given) | -1.2 | 4
CNC(=O)N(Cc1cccnc1)Cc1ccccc1Cl | -0.8 | 9
N#Cc1c(N)[nH]c(=S)c(C(N)=O)c1-c1cccc(Br)c1 | 16 | 16
COc1cc(C(=O)NC(C)(C)CCO)cc(OC)c1OC | -1.4 | .
Cc1cc(=O)n(C)c(=O)n1CCCCCN1CCCC1 | -7.2 | 3
Cc1cccc(-n2c(SCCC#N)nnc2-c2ccc(Cl)cc2)c1 | . | 12
Cc1cc(S(=O)(=O)NC2CCCCC2)ccc1OCC(=O)NCc1cccnc1 | 1.8 | -7
O=C(c1cnc2sccn2c1=O)N1CCN(c2ccccc2)CC1 | . | -7
O=C(O)CCCCN1C(=O)c2ccccc2C1=O | . | 3
CSc1c(-c2ccccc2)nc2ccccc2c1C(=O)O | 0.0 | .
COc1ccc(NC(=O)C(C)Sc2ccccc2)cc1 (stereo not given) | 2.5 | 1
OC(CSc1nncn1-c1ccccc1)C(O)C(O)c1cnn(-c2ccccc2)n1 (stereo not given) | . | 6
O=C1C2C(C(=O)N1CC1CCCO1)C1C=CC2C12CC2 (stereo not given) | 0.6 | 5
Cc1ccc(S(=O)(=O)N2CC=C(c3ccccc3)CC2)cc1F | -0.5 | .
Cc1cccc2nc(=S)n(C(=O)c3ccc(F)cc3)n12 | -0.8 | -1
Cc1cc(C(=O)CSc2nn3c(=O)c(C(C)(C)C)nnc3s2)c(C)n1C1CC1 | . | -9
O=C(Nc1sc2c(c1C(=O)O)CCC2)c1cccnc1 | . | -9
Cc1cccc(Cn2c(SCc3ccc(C(=O)NCCN4CCCC4)cc3)nc3ccncc32)c1 | -3.8 | 12
OCCN1CCN(CC/C=C2/c3ccccc3Sc3ccc(Cl)cc32)CC1 | -1.0 | .
CC(=O)N[C@H]1[C@H](Oc2ccccc2)O[C@@H]2COC(c3ccccc3)O[C@H]2[C@@H]1O (stereo not given in full) | . | 7
COc1ccc(C(=O)c2cc3cc(Cl)cc(Cl)c3o2)cc1 | -0.7 | .
O=C(Cn1cnc2c(nnn2Cc2ccc(Cl)cc2)c1=O)NC1CCCCC1 | -1.8 | 9
O=C(O)/C(=C/c1cccs1)c1cccs1 | -0.7 | 15
CN1C=C(c2ccccc2)N(c2ccccc2)C1 | -9.8 | 10
CCOc1cc(/C=C2/SC(N)=NC2=O)ccc1OCc1ccccc1 | -0.2 | .

Part of the list above in order of molar mass, smallest number first:
SMILES | MgrA DNA FP | S aureus helic
O=C(O)/C(=C/c1cccs1)c1cccs1 | -0.7 | 15
O=C(O)CCCCN1C(=O)c2ccccc2C1=O | . | 3
O=C1C2C(C(=O)N1CC1CCCO1)C1C=CC2C12CC2 (stereo not given) | 0.6 | 5
Cc1cccc2nc(=S)n(C(=O)c3ccc(F)cc3)n12 | -0.8 | -1
O=C(Nc1sc2c(c1C(=O)O)CCC2)c1cccnc1 | . | -9
CSc1c(-c2ccccc2)nc2ccccc2c1C(=O)O | 0.0 | .
COc1ccc(C(=O)c2cc3cc(Cl)cc(Cl)c3o2)cc1 | -0.7 | .
Cc1ccc(S(=O)(=O)N2CC=C(c3ccccc3)CC2)cc1F | -0.5 | .
O=C(c1cnc2sccn2c1=O)N1CCN(c2ccccc2)CC1 | . | -7
CCOc1cc(/C=C2/SC(N)=NC2=O)ccc1OCc1ccccc1 | -0.2 | .
CC(=O)N[C@H]1[C@H](Oc2ccccc2)O[C@@H]2COC(c3ccccc3)O[C@H]2[C@@H]1O (stereo not given in full) | . | 7
O=C(Cn1cnc2c(nnn2Cc2ccc(Cl)cc2)c1=O)NC1CCCCC1 | -1.8 | 9
Cc1cc(C(=O)CSc2nn3c(=O)c(C(C)(C)C)nnc3s2)c(C)n1C1CC1 | . | -9
OC(CSc1nncn1-c1ccccc1)C(O)C(O)c1cnn(-c2ccccc2)n1 (stereo not given) | . | 6
Cc1cccc(Cn2c(SCc3ccc(C(=O)NCCN4CCCC4)cc3)nc3ccncc32)c1 | -3.8 | 12

Later entries
SMILES | MgrA DNA FP | S aureus helic
CC(C)n1nccc1N(CC(=O)N(C)C1CCCCC1)S(=O)(=O)c1ccccc1 | . | 6
O=C(Cn1cnnn1)Nc1ccc(Sc2ccc(Br)cc2)cc1 | . | -3
Cc1oc(C(C)(C)C)cc1-c1cc(NS(=O)(=O)c2ccc(Cl)cc2)n[nH]1 | . | -14
COC(=O)Nc1nc2c(C)cccc2s1 | -0.9 | 11
CCC1(C)CC(C(=O)c2cccc(C)c2)CCO1 (stereo not given) | 4.8 | 10
CCN(/C=C/C(=O)c1ccccc1O)CC | -6.6 | 0
CCOC(=O)n1c(=O)sc2ccccc21 | -1.1 | 2
NC(=O)C1CCCCN1Cc1cc2c(cc1O)CCC2 (stereo not given) | . | -7
Cc1nn(-c2ccccc2)c2sc(C(=O)N3CCOCC3)cc12 | 2.0 | -1
Cc1nn(-c2ccccc2)c(C)c1CN(C)C(=O)CNC(=O)c1cccs1 | . | -6
Cc1ccc(C)n1-c1ccc(C(=O)N2CCNC(=O)C2)cc1 | . | 9
CCC(Sc1nc2cc(OC)c(OC)cc2c(=O)n1Cc1ccco1)C(=O)NCc1ccc(C)cc1 (stereo not given) | . | 5
N#Cc1c(F)cccc1NC(=O)CSCC(=O)O | -3.8 | .
Cc1noc(C)c1CC(=O)Nc1ccc2c(c1)OCCCO2 | . | -8
OC(CN1CCOCC1)C12CC3CC(CC(C3)C1)C2 (stereo not given) | 0.9 | -16
COc1ccc(-n2nc(C)c3sc(C)nc3c2=O)cc1 | . | 3
CCN1CCN(C(=O)Nc2ccc(Cl)c(Cl)c2)CC1 | 4.6 | 16
CCCC(=O)Nc1cccc(NC(=O)c2cccnc2)c1 | 3.6 | 8
CN(C)C(=O)CSc1nnc(-c2ccccc2O)n1Cc1ccccc1 | 1.8 | 8
O=C(c1cccs1)N1CCC2(CC1)OCCO2 | -1.2 | .
CCCCCCCc1c(COC)[nH][nH]c1=O | 0.2 | .
Cc1ccc(Cl)cc1NC(=S)NN | 3.4 | .
Cc1ccsc1CNS(=O)(=O)c1ccc(F)cc1 | -1.1 | .
Cc1c(C(=O)Nc2ccc(S(=O)(=O)N3CCCCCC3)cc2)oc2ccc(F)cc12 | -1.4 | 9
CN(c1ccnc(C(=O)NCCN2CCOCC2)c1)S(=O)(=O)c1ccccc1 | . | -10
Cc1ccc(Oc2ncccc2C(F)(F)F)c2c1CCC2 | -1.6 | .
Cc1ccc2nc(NC(=O)C(Cc3ccccc3)NC(=O)OCc3ccccc3)sc2c1 (stereo not given) | -2.4 | 5
COc1ccc(CCNC(=O)CSc2nc3ccccc3nc2N2CCCC2)cc1OC | -1.6 | 8
O=C(COCC(=O)Nc1nc(-c2ccncc2)cs1)Nc1nc(-c2ccncc2)cs1 | . | 10
NNC(=O)CSc1nc2ccccc2o1 | . | -23
Brc1ccc2nc[nH]c2c1 | -0.2 | 6
COC(=O)c1ccc2c(c1)sc(=NC(=O)c1ccc(S(=O)(=O)N3CCCC3)cc1)n2C | . | 5
COCC(C)n1c(C)cc(C(=O)CSC2=N/C(=C\c3ccco3)C(=O)N2c2ccc(OC)c(Cl)c2)c1C (stereo not given) | . | 16
N#CC(Cc1ccccc1)Sc1nnc(-c2ccco2)n1-c1ccccc1 (stereo not given) | . | -5
CCNC(=O)/C=C/c1ccc(C(C)(C)C)cc1 | -0.1 | 21
CC(C)CCNc1nc2c(c(=O)[nH]c(=O)n2C)n1C(C)C | . | -1
O=C(c1ccc(Cl)cc1)N1CCc2c([nH]c3ccccc23)C1C(F)(F)F (stereo not given) | -1.2 | .
Cc1cc(=O)n2ccccc2c1C#N | . | -5
Cc1ccc(NC(=O)CN(CCO)c2ccccc2)cc1 | -0.3 | -15
Cn1c(=O)c2c(nc(NC3CCCCC3)n2Cc2ccccc2Br)n(C)c1=O | 0.6 | .
O=C(O)Cn1c(C(F)(F)F)nc2ccccc21 | 1.3 | .
Clc1ccc2c(N3CCN(c4ncccn4)CC3)ccnc2c1 | . | 1
CCCCSc1nnc2c(n1)OC(c1cc3c(cc1Br)OCO3)Nc1ccccc1-2 (stereo not given) | -1.4 | .
Cc1ncoc1C(=O)Nc1ccccc1F | -0.9 | 17
O=C(Cn1cnc2ccccc21)NC1CCCC1 | 1.3 | -17
CCOC(=O)c1sc2nc(C)nc(N(C)Cc3ccccc3)c2c1C | 2.2 | 11
Cc1ccc(S(=O)(=O)NC2CCCCC2n2cc(-c3ccccc3)nn2)cc1 (stereo not given) | . | 7
COC(=O)c1sc(NC(=O)CSc2n[nH]c(-c3cccs3)n2)c(C(=O)OC)c1C | . | -19
CC(=O)NC(CCCN=C(N)N)C(=O)O (stereo not given) | -2.6 | .
O=C(c1noc2c1CCCC2)N1CCC(c2c[nH]c3ccccc23)(c2c[nH]c3ccccc23)CC1 | . | -6
Further entries follow.
SMILES | MgrA DNA FP | S aureus helic
CC(CN1CCN(Cc2ccccc2)CC1)N(C(=O)c1ccoc1)c1ccccn1 (stereo not given) | -1.8&-0.6 | .
CCC1(CC)Cc2ccccc2-c2nc(-c3ccccc3)oc(=O)c21 | 0.8 | 11
Clc1ccc(C2=NC(c3ccccc3Cl)N=C(c3ccc(Cl)cc3)S2)cc1 | -2.7 | .
COc1ccccc1C(=O)OC1CCN(C)CC1 | 3.2 | 10
C=CCc1cccc2cc(C(=O)N3CCCCC3)c(=O)oc12 | 1.0 | .
O=C(Oc1ccc(Cl)cc1)c1c(-c2ccccc2)nnc2ccccc12 | -0.3 | .
O=C(Nc1ccc(F)cc1F)c1cccnc1Sc1cccs1 | -0.2 | .
CCCN1C(=O)C(NC(=O)c2ccco2)(C(F)(F)F)N=C1c1ccccc1 (stereo not given) | . | 34
CCOC(=O)c1ccc(N2CC3CCCCN3C2c2cccc(OC)c2O)cc1 (stereo not given) | -2.6 | .
CCOC(=O)c1c(C)c(C#N)c(-n2cccc2)n1-c1ccc(C)cc1 | -1.4 | .
Cc1c2cnn(-c3ccccc3)c(=O)c2c(C)n1C(C)C(=O)Nc1nccs1 (stereo not given) | . | -18
CC(=O)Oc1ccc2c(=O)c(-c3ccccc3)c(C(F)(F)F)oc2c1 | 1.2 | 10
O=C(Nc1cccc(N2C(=O)C=CC2=O)c1)c1cccs1 | 22 | 10
CS(=O)(=O)N1CCCc2cc(C(=O)NCC(=O)Nc3ccc(F)c(F)c3)ccc21 | . | -8
N#C/C(=C\N1CCc2ccccc21)S(=O)(=O)c1ccc(C(F)(F)F)cn1 | -2.4 | .
c1ccc2[nH]c(CNc3ncnc4sccc34)nc2c1 | . | -13
Cc1cc(C(=O)OCc2nc(N)nc(N)n2)c2ccccc2n1 | . | 1
CCOc1cc(C2C(C#N)=C(C)NC3=C2C(=O)CC(c2ccccc2)C3)ccc1OC(C)=O (stereo not given) | -2.9 | .
COc1ccc(OCCNC(C)=O)cc1 | 1.3 | 17

These rows are one share of the data; rates above refer to the full screens.
